# Lassa entry inh: qHTS for Inhibitors of binding or entry into cells for Lassa Virus; Lassa virus pseudotype entry inhibition, cell reporter; control for the full effect not named in the record; Potency, µM (top dose mostly 37.9 µM), for the others: at the top dose activity change, negative = inhibition, hits mostly inhibitors; 300,000 compounds, 1.2% hits; active means well fitted inhibition curve with a large enough effect; inconclusive means small, poorly fitted or top-dose-only effect, or effect the other way; inactive means flat fitted curve, though single readings scatter; tested in HEK293 cells; further: on the % scale 0 is the no-effect control and ±100 the full control effect; nearly all actives have a fitted effect of over 50% in size; luciferase read-out
# StopGo reporter: High Throughput Screening for Foot and Mouth Disease Virus Antivirals | human cells with a luciferase reporter of 2A StopGo recoding; control for the full effect not named in the record | Potency, µM (highest dose often 57.9 µM), for the others: at the top dose signal change, negative = less light | 410,000 compounds, 1.2% hits; active = well fitted falling curve with a large enough effect; inconclusive = small, poorly fitted or top-dose-only effect; inactive = no such curve, though single readings can be large or run the other way; tested in HEK293T cells; further: on the % scale 0 is the no-effect control and ±100 the full control effect; nearly all actives have a fitted effect of over 45% in size; luciferase light after 4 h
# RE007 growth inh: qHTS Assay for Inhibitors of the HIV-1 protein Vpr | S. pombe RE007 Vpr strain, BacTiter-Glo ATP luminescence, 24 h; control for the full effect not named in the record | Potency, µM (highest dose often 92.2 µM), for inactives: at the top dose activity change, negative = less growth | 360,000 compounds, 0.21% hits; active = well fitted falling curve with a large enough effect; inconclusive = small, poorly fitted or top-dose-only effect; inactive = no such curve, though single readings can be large or run the other way;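 further: on the % scale 0 is the no-effect control and ±100 the full control effect; nearly all actives have a fitted effect of over 50% in size; the assay follows cell death caused by Vpr and the record does not say whether a fall means rescue or toxicity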
#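 Fission yeast strain RE007, carrying one chromosomally integrated HIV-1 vpr copy, was seeded at OD 0.01 in PMG+AL medium with 23 nL pinned compound. After 24 h at 30 °C and 99% humidity, viability was read by BacTiter-Glo luminescence.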
# NS1 function inh: qHTS Assay for Inhibitors of Influenza NS1 Protein Function; S. cerevisiae slowed by influenza A NS1, growth recovery by OD600; Potency, µM (titrated, usually from 46.1 µM), for inactives: at the top dose activity, positive = more growth; 270,000 compounds, 0.4% hits; AID 2326, 2010; active means well fitted rising curve with a large enough effect; inconclusive means small, poorly fitted or top-dose-only effect; inactive means no such curve, though single readings can be large or run the other way; further: nearly all actives have a fitted effect of over 50% in size
#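 Recovery from NS1-induced slow growth read by OD600 in budding yeast switched to galactose assay medium (pH 6.0, -URA) at 1:100 dilution. Compound 23 nl per well; the matching strain lacking NS1 serves as control.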
# Cruzain noTriton: qHTS Assay for Promiscuous and Specific Inhibitors of Cruzain (without detergent) | 200,000 compounds, 2.3% hits | Cruzipain (Trypanosoma cruzi), P25779 | purified cruzain, Z-FR-AMC fluorescence, no detergent | AID 1476, 2009 | Potency, µM, without a hit: max response, negative = inhibition, actives largely listed as inhibitors;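 further: plate controls were enzyme without inhibitor for no effect and buffer without enzyme for full effect; nearly all actives have a fitted effect of over 40% in size; top concentration of the series not given in the record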
# Target sequence (P25779 123-467 limits assumed): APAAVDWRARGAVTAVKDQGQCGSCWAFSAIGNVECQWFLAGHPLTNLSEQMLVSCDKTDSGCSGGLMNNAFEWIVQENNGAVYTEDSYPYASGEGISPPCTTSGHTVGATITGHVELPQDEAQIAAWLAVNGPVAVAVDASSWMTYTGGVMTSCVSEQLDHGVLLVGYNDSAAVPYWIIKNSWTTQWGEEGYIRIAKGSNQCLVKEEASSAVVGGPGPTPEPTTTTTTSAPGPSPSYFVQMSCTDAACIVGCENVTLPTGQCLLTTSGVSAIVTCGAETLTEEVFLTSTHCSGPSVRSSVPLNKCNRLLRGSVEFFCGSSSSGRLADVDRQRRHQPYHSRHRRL
#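 Detergent-free condition (0.00005% Triton X-100) in acetate buffer pH 5.5 with DTT. 1.5 nM enzyme and compound were pre-mixed 15 min, then 2 uM Z-FR-AMC substrate added; reaction progress from fluorescence change between first and third reads (60 s).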
# Cruzain inh Det: qHTS Assay for Promiscuous and Specific Inhibitors of Cruzain (with detergent) | Cruzipain (Trypanosoma cruzi), P25779 | purified cruzain, Z-FR-AMC fluorescence, 0.01% Triton | 200,000 compounds, 0.43% hits | Potency, µM, for inactives: max response, negative = inhibition, actives largely listed as inhibitors | AID 1478, 2009;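 further: plate controls were neutral wells for no effect and buffer without enzyme for full effect; nearly all actives have a fitted effect of over 40% in size; top concentration of the series not given in the record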
#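 Enzyme 1.5 nM, Z-FR-AMC 2 uM, NaOAc 100 mM pH 5.5, DTT 5 mM, Triton X-100 0.01%; 15 min RT compound preincubation; kinetic ex360/em450, 60 s delta.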
# Marburg entry inh: qHTS for inhibitors of binding or entry into cells for Marburg Virus; Marburg virus pseudotyped entry inhibition, cell reporter; control for the full effect not named in the record; about a third of the inactives were read at about 46 µM; Potency, µM (highest dose often 37.8 µM), without a hit: at the highest dose activity change, negative = inhibition, most hits filed as inhibitors; 300,000 compounds, 1.8% hits; active = well fitted inhibition curve with a large enough effect; inconclusive = small, poorly fitted or top-dose-only effect, or effect the other way; inactive = flat fitted curve, though single readings scatter; tested in HEK293 cells; about a fifth of its hits are not listed in these tables; further: on the % scale 0 is the no-effect control and ±100 the full control effect; luciferase read-out
# SARS PLpro yeast: qHTS of Yeast-based Assay for SARS-CoV PLP | S. cerevisiae expressing SARS-CoV PLpro, growth rescue; control for the full effect not named in the record | Potency, µM (top dose mostly 32.9 µM), inactives show top-dose activity, positive = growth rescue | 330,000 compounds, 0.19% hits; active means well fitted rising curve with a large enough effect; inconclusive means small, poorly fitted or top-dose-only effect; inactive means no such curve, though single readings can be large or run the other way; further: 0% is about no effect; nearly all actives have a fitted effect of over 55% in size; growth read by luminescence after 48 h
# The depositor's hits bear a star; ? = inconclusive; . = no result given; & = joins results of further samples; [ ] = remark or other dose. Unless noted, the call rests on the fitted dose curve; in most records, active means well fitted curve in the direction sought with a large enough effect; inconclusive means small, poorly fitted or top-dose-only effect, or another doubt; inactive means no such curve, though single readings can be large; an effect the other way counts as inactive or inconclusive. Potency means the concentration at half of the fitted maximal effect.
SMILES,Lassa entry inh,StopGo reporter,RE007 growth inh,NS1 function inh,Cruzain noTriton,Cruzain inh Det,Marburg entry inh,SARS PLpro yeast
c1ccc(Nc2nc(-c3ccncc3)nc3ccccc23)cc1,-8%,?,-17%,2%,-6%,0.9%,?,10%
COc1ccc2c(CCNC(=O)/C=C/c3ccc(OC)c(OC)c3)c[nH]c2c1,?,-9%,9%,-3%,.,.,?,0%
COc1ccc(-c2nc3ccccc3nc2-c2ccccc2)cc1,6%,?,1%,1%,.,.,-19%[46.1 µM],-1%
Cc1ccc(C(=O)OCC2OC3OC(C)(C)OC3C2O)cc1 (stereo not given),?,44%[activator],-2%,-5%,-1%,0.5%,-7%,18%
COc1ccc(NC(=S)NCc2ccc3c(c2)cc(C)n3C)cc1,-20%,17%,1%,?,?,-9.6%,2%,?
COc1ccc(C(=O)C[n+]2ccc(N(C)C)cc2)cc1,?,-26%,-10%,-2%,.,.,2%[46.1 µM],0%
Cc1cc(C(=O)CCl)c(C)n1-c1c(C)n(C)n(-c2ccccc2)c1=O,?,28µM*,-7%,1%,.,.,?,2%
CCC1CCCCN1CCCNC(=O)CN1C(=O)COc2ccc(S(=O)(=O)N3CCC(C)CC3)cc21 (stereo not given),27%[46.1 µM],21%,-5%,-1%,.,.,?,-1%
COC(=O)c1ccc(/C=N\n2c(C)nnc2C)cc1,-1%,11%,3%,?,-3%,8.3%,3%,1%
O=C(Nc1ccc(NC(=O)c2cccs2)c(Cl)c1)c1cccs1,24%,28%,0%,-11%,.,.,2%[46.1 µM],-2%
CCCCn1c(N)c(N(CC(C)C)C(=O)c2oc3c(Cl)cccc3c2C)c(=O)[nH]c1=O,-9%,-22%,-2%,.,.,.,-16%[46.1 µM],-3%
CCCn1c(N)c(C(c2ccc(C(=O)OC)cc2)N2CCN(c3ccccc3)CC2)c(=O)[nH]c1=O (stereo not given),-15%,-5%,-5%,-35%,-5%,1.1%,11%&11%,-9%
CCN(Cc1ccccc1)C(=O)Cn1c(=O)n(-c2ccc(Cl)cc2)c(=O)c2c(C)c(C)sc21,2%[46.1 µM],-32%,.,.,7%,0.1%,2%[46.1 µM],.
CC(C)C(NC(=O)c1ccccc1F)C(=O)OCC(=O)c1ccc(F)cc1 (stereo not given),-3%,43%[activator],5%,-11%,.,.,14%[46.1 µM],-11%
Cc1ccc(S(=O)(=O)NC2(C(F)(F)F)NC(=O)N(CCc3ccccc3)C2=O)cc1 (stereo not given),0%,12%&15%,4%,7%,26%,-6.1%,18%&25%[46.1 µM],0%
CCn1c2ccc(Cl)cc2c2nc3ccccc3nc21,4%,-21%,-11%,-10%,?,-1.7%,?,1%
COc1ccccc1/C=N/NC(=O)CO,4%[46.1 µM],-2%,1%,.,.,.,2%[46.1 µM],-5%
Cc1ccc(CNC(=O)c2cc3c(=O)n(C)c4ccccc4c3n2C)cc1,.,-2%,1%,13%,?,9.5%,.,1%
CCCCn1c(N)c(N(CC(C)C)C(=O)Cc2ccc(S(=O)(=O)N3CCOCC3)s2)c(=O)[nH]c1=O,-3%,-6%,6%,.,.,.,12%,.
Clc1ccc(Oc2nc(N3CCOCC3)nc(N3CCOCC3)n2)c(C2CCCCC2)c1,13%,-19%,-9%,-38%,.,.,24%,.
CN(C)c1ccc(/C=C(\NC(=O)c2ccccc2)C(=O)NCCCn2ccnc2)cc1,-21%[46.1 µM],38%[activator],5%,-5%,.,.,6%[46.1 µM],2%
Cc1ccc(NC2CCCN(C(=O)c3ccccc3-c3ncc[nH]3)C2)cc1C (stereo not given),.,1%,-2%,-3%,.,.,.,-2%
CC1CC2=C(C(=O)O1)C(c1ccccc1)Nc1ccccc1N2 (stereo not given),2%,-19%,2%,-1%,-5%,-6.8%,-8%,13%
CCn1c(=NC(=O)c2ccc3c(c2)OCCO3)sc2c(C)ccc(OC)c21,15%[46.1 µM],?,.,.,-10%,3.5%,.,.
O=c1c(-c2ccc(Cl)cc2)cnc2n1CCS2,-4%,50%[activator],26%,-5%,.,.,?,1%
Cn1c2ccccc2c2c(C(=O)N3CCN(c4ccc(F)cc4)CC3)cn(C3CCCCC3)c(=O)c21,?,11%,.,.,-11%,-3.8%,?,.
COC(=O)CCC(=O)NNC(=O)c1cccc(Cl)c1,0%,-4%,-3%,-6%,-1%,5.7%,10%,2%
CC(NCC(O)COc1ccccc1)C1COc2ccccc2O1 (stereo not given),.,-12%,2%,-3%,.,.,.,-1%
CCCCCOc1ccc(OC(=O)c2ccncc2)cc1,?,26%,-26%,-9%,3%,-4.3%,?,3%
O=C1C2CC=CCC2C(=O)N1c1ccc(NCCc2ccccc2)c([N+](=O)[O-])c1 (stereo not given),-6%,5%,1%,3%,-7%,-5.8%,?,3%
O=C(COC(=O)CC1CCCC1)Nc1ccc(Br)cc1F,24%[46.1 µM],18%,0%,.,.,.,2%[46.1 µM],-6%
COC(=O)[C@@]1(Cc2ccc(OC)cc2)[C@H]2c3cc(C(=O)N4CCCC4)n(Cc4ccc(C)c(F)c4F)c3C[C@H]2CN1C(=O)c1ccccc1,.,-20%,0%,.,?,0.0%,.,.
O=C(O)CN1C(=O)CC(c2ccccc2)CC1=O,-2%,5%,-10%,-4%,.,.,5%,21%
CCOc1ccc(C(=O)NCCCN2CCCC2=O)cc1,1%,22%,14%,1%,-7%,0.6%,-3%[46.1 µM],19%
COc1ccc(C(=O)C2CCCN(C(=O)c3cc(C4CC4)[nH]n3)C2)c(C)c1 (stereo not given),.,-12%,13%,6%,.,.,.,-1%
CN(Cc1nc2ccccc2n1C)c1ccccc1,6%,-6%,-17%,-7%,.,.,?,-2%
Cc1ccc(NC(=O)CN(C)C(=O)COc2ccc(C(=O)c3ccc(F)cc3)cc2)cc1,-2%,5%,-5%,8%,?,-8.5%,-23%,-16%
CCCCCn1c(CCCNC(=O)c2ccccc2)nc2ccccc21,8%[46.1 µM],?,.,.,4%,-1.8%,?,.
COc1cccc(N2CCN(Cc3ncc(-c4ccccc4)o3)CC2)c1,.,-7%,-7%,-20%,.,.,0%[46.1 µM],-18%
COc1ccc(C2N3CC4(C)CN2CC(c2ccccc2)(C3)C4=O)cc1OC (stereo not given),-8%[46.1 µM],-20%,.,.,14%,1.4%,?,.
COc1ccccc1NC(=O)C1CC(=O)N(c2ccc(F)cc2)C1 (stereo not given),-30%,6%,9%,-2%,6%,3.3%,0%,2%
Cc1ccc(NCc2ccco2)cc1C,.,46%[activator],1%,0%,.,.,.,0%
O=C(CC1C(=O)N(c2ccc(F)cc2)C(=O)N1Cc1ccc2c(c1)OCO2)Nc1ccc(Cl)cc1 (stereo not given),?,16%,.,.,-6%,-5.1%,?,.
O=C(NCC(c1ccco1)N1CCN(c2ccccc2)CC1)c1ccco1 (stereo not given),-17%,3%,-9%,.,.,.,1%,0%
CCS(=O)(=O)N1CCC(C(=O)NCCN2CCOCC2)CC1,-3%,0%,-5%,0%,2%,-1.5%,?,2%
O=C1CN(C(=O)c2ccccc2F)C(c2ccccc2)c2cc(F)ccc2N1 (stereo not given),.,-14%,19%,2%,.,.,.,1%
COc1ccc(NC(=O)c2ccsc2NC(C)=O)cc1,4%,3%,-14%,.,.,.,6%[46.1 µM],-8%
COC(=O)c1sc2nc3c(cc2c1N)COC(C)(C)C3,?,.,-12%,-12%,0%,-5.5%,5%,-3%
COc1cc(NC(=O)CSc2nc(C)cc(C)n2)cc(OC)c1OC,6%,-23%,-11%,1%,.,.,?,-1%
CN(Cc1ccc(-n2cccn2)cc1)Cc1cn(C)nc1-c1ccccc1F,1%[46.1 µM],-13%,-9%,2%,.,.,?,0%
COc1ccccc1NC(=O)CSc1nnc(CSc2nc(C)cc(C)n2)o1,4%[46.1 µM],13%,8%,-2%,.,.,-1%[46.1 µM],-1%
O=S(=O)(NCCc1ccncc1)c1ccc(S(=O)(=O)N2CCCCCC2)cc1,6%,11%,-14%,-4%,-2%,2.3%,1%,-21%
O=S(=O)(c1ccc(NCCCO)nc1)N1CCOCC1,?,-8%,-7%,.,.,.,-4%,-3%
COc1cc(OC)c(NS(=O)(=O)c2ccc3c(c2)NC(=O)CO3)cc1Cl,.,19%,-6%,19%,.,.,.,0%
CCOC(=O)c1[nH]c(C)c(CCC(=O)N2CCN(c3cccc(OC)c3)CC2)c1C,-22%[46.1 µM],-30%,.,.,10%,2.8%,.,.
c1ccc(CN2CCN(Cc3ccc4c(c3)OCCO4)CC2)cc1,19%,8%,17%,3%,4%,2.7%,0%,0%
Cc1ccc(NC(=O)CN2C(=O)N/C(=C/c3ccc(C)o3)C2=O)cc1,-10%,13%,14%,8%,-20%,-0.2%,-1%,-5%
CC(C)CCCN1CCN=C1Nc1ccccc1,.,-17%,-2%,8%,.,.,.,1%
Cc1ccc(-c2csc(NC(=O)CSc3ncn(-c4ccccc4)n3)n2)cc1,?,-29%,-3%,-9%,?,1.1%,-26%,?
Cc1cnc(CNC(=O)CC2C(=O)NCCN2Cc2ccccc2C(F)(F)F)cn1 (stereo not given),4%,-4%,5%,7%,.,.,27%,10%
CC(C)(C)NC(=O)CSc1nc2ccc(Nc3nc(N4CCOCC4)nc(N4CCOCC4)n3)cc2s1,.,?,14%,1%,.,.,.,0%
Cc1ccc(C2=NC(C)(C)N=C2SCC(=O)Nc2ccc(Cl)cc2)cc1,-3%,32µM*,9%,-143%,?,-3.0%,?,-46%
CC(C)(C)C(=O)N1N=C(c2ccc(NS(C)(=O)=O)cc2)CC1c1cccs1 (stereo not given),?,-20%,2%,.,.,.,-18%[46.1 µM],0%
